ALR inh – blocks human ALR sulfhydryl oxidase activity | P55789 | purified ALR, DTT oxidation, H2O2 HRP-luminol luminescence | inhibition, % (no concentration beside the values) | hit rate 3.8% among 290,000 | AID 485317;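 active = mean and each replicate at 75% or more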;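 note: stock transfer was 7.5 nL into about 7.5 µL; 0% = neutral wells and 100% = wells with inactivated enzyme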
Target sequence (P55789 whole entry, looked up): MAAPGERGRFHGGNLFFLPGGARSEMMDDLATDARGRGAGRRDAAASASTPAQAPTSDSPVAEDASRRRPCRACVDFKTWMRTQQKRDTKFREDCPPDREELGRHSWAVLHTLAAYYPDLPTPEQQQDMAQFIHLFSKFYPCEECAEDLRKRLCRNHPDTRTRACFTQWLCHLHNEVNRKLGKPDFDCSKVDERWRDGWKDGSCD
HNF4A DNA FP – change in binding of human HNF4 alpha to DNA; P41235; HNF4a-FITC DNA binding, fluorescence polarization, 1 h; activity change, % at 10 µM; hit rate 0.3% among 360,000; in the data active = activity change above about 30%, passing the limit was not always enough;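 note: controls were the assay level and a saturating level of protein; the project sought stronger binding though the title names inhibitors; some compounds called inactive have numbers as strong as hits; positive values seem to mean higher polarization but the record does not say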
Target sequence (P41235 whole entry, looked up): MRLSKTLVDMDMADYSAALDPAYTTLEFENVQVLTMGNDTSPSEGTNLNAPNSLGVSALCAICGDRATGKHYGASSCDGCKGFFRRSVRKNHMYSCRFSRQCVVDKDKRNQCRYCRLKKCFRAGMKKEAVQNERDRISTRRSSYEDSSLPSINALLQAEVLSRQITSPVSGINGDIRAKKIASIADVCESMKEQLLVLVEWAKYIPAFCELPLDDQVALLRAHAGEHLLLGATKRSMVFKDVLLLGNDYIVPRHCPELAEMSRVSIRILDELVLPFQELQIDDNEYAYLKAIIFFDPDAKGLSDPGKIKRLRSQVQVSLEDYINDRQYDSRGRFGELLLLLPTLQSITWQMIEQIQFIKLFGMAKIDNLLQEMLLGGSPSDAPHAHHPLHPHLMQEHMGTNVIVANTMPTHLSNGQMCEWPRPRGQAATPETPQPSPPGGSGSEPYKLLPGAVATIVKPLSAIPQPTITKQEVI
B2AR ag – human beta-2 adrenergic receptor agonism by FAP | P07550 | Am2.2-beta2AR cells, FAP receptor internalization, flow cytometry; reference of the scale not given here | response, % (concentration not given with the values) | hit rate 0.43% among 340,000;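 active = response above a set limit, near 3 SD of response in nonfluorescent compounds, cut at about 42% in these data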;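 note: stock transfer was 100 nL into about 11 µL; a reference agonist was the positive control; negative values mostly stem from fluorescent compounds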
FGF22 binding – FGF22 (human) thermal shift binding; hit rate 1.5% among 340,000; Q9HCT0; calls only at 9.99 µM; recombinant FGF22 thermal shift, SYPRO orange fluorescence; percent of sucrose octasulfate shift, DMSO zero; AID 651658;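 active = melting point raised past a set limit in the mean and every replicate; three in four hits are not shown here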
Target sequence (Q9HCT0 whole entry, looked up): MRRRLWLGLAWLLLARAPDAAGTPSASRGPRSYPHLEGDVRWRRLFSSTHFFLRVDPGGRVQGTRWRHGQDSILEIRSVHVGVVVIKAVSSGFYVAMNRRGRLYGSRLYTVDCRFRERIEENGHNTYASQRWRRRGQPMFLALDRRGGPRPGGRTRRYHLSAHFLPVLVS
LANA-H2B inh – blocks KSHV LANA binding to histone H2A/H2B; cell-free LANA-H2A/H2B peptide, fluorescence polarization; inhibition, % (concentration not given with the values); hit rate 0.6% among 320,000; AID 2629; in the data active = inhibition mostly above about 10%, no sharp cut-off; inactive = mostly below about 6.7%;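 note: stock transfer was 7.5 nL into about 10 µL; 0% = median of vehicle wells and 100% = median of positive control wells; one replicate is shown; the record names a cut of 25% in any replicate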
Ecoli growth – blocks Escherichia coli growth; OD600, 23 h; stronger effect = lower value; AID 1053175; hit rate 0.21% among 330,000; OD600 absorbance (concentration not given with the values);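 active = OD600 absorbance below the run mean of sample wells minus 3.6 SD, in any replicate, cut at about 0.56 in these data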;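 note: stock transfer was 300 nL into about 60 µL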
UCH37 DUB inh – blocks the human deubiquitinase UCH37; Q9Y5K5; purified proteasome/UCH37, Ub-AMC cleavage fluorescence; inhibition, % (no concentration beside the values); hit rate 0.33% among 330,000; AID 588478;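 active = mean of two replicates above 20%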;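 note: 0% = compound-free wells with enzyme and 100% = wells lacking proteasome; stock transfer was 100 nL into about 20 µL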
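Material: human UCH37 enzyme supplied as purified proteasome complex / Amount: 0.15 nM proteasome as dispensed / Buffer or medium: pH 7.4 Tris-HCl (50 mM) with ovalbumin, ATP-MgCl2, DTT / Times: preincubation 30 min, reaction 25 min, room temperature / Technique: AMC fluorescence from Ub-AMC cleavage, excitation 355 nm, emission 460 nm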
* marks the source's active call; other numbers are inactive results; i = inactive; nt = not tested or not shown; + = active, no number. The list is partial; count on the stated rates, not on these rows.

SMILES	ALR inh	HNF4A DNA FP	B2AR ag	FGF22 binding	LANA-H2B inh	Ecoli growth	UCH37 DUB inh
CCCc1[nH]n(-c2ccc(F)cc2)c(=O)c1C=Nc1ccc(C)cc1	0.1	2.2	-17.6	i	0.0	0.733	3.5
O=C(C/C=N\OCc1ccc([N+](=O)[O-])cc1)Nc1ccc(Cl)cc1	-28.9	-0.4	5.1	i	0.7	nt	nt
COc1ccc(NC(=O)c2cnc3ccccn3c2=O)c(OC)c1	nt	1.2	-22.4	i	nt	0.679	6.1
OC(COc1ccc2c(c1)CCC2)Cn1cnc2ccccc21 (stereo unspecified)	-2.7	-5.0	0.6	nt	-1.5	0.723	3.0
OC(COc1ccc2ccccc2c1)CN1CCN(c2ccc(F)cc2)CC1 (stereo unspecified)	-127.6	-0.7	0.9	i	2.8	0.715	4.5
COc1cc(/C=N/Nc2ccc(C(=O)O)cc2)ccc1O	99.2*	-0.2	-14.2	i	-6.0	nt	nt
O=C1c2ccccc2C(=O)N1CCC(O)C[N+](=O)[O-] (stereo unspecified)	7.9	3.0	2.6	i	2.6	0.661	-1.5
O=C(Nc1ncc([N+](=O)[O-])s1)C1CCN(S(=O)(=O)c2cnc[nH]2)CC1	-7.7	0.1	-8.5	i	-0.4	0.688	9.7
O=c1[nH]c(=S)[nH]c2nc(-c3ccccc3)cnc12	26.6	-1.2	12.2	i	-0.9	0.667	6.5
Cc1ccc(C(=O)NC(=O)CSc2nncn2C)cc1	1.2	-0.8	-1.8	i	1.2	0.695	1.1
COc1cc2cc(CN(CCN3CCOCC3)C(=O)Nc3ccc(F)cc3)c(=O)[nH]c2cc1OC	-5.8	0.7	0.5	i	-3.2	0.651	-76.8
O=C(Nc1ccc(S(=O)(=O)Nc2ccc(F)cc2)cc1)c1ccc(CN2CCOCC2)cc1	-7.2	7.4	7.4	i	-2.3	0.66	1.6
CCc1ccc(C(=O)Nc2cc(S(=O)(=O)N3CCOCC3)ccc2N2CCOCC2)cc1	-1.1	-3.5	6.0	i	-2.8	0.68	2.7
CCC1=Nc2cc(C(=O)NCCCN3CCN(C)CC3)ccc2Sc2ccccc21	-15.0	-2.0	5.4	i	-0.7	0.661	5.7
CN(C)CCCNC(=O)c1cc2c3ccccc3n(C)c2s1	nt	-0.9	6.8	nt	1.7	0.667	-14.0
Nc1nc(SCC(=O)Nc2ccc3c(c2)OCO3)n[nH]1	3.8	-0.6	1.2	i	3.6	0.72	0.2
COc1cc(NC(=O)CCCn2c(=S)[nH]c3ccccc3c2=O)cc(OC)c1OC	48.8	-3.2	-0.5	nt	-0.5	0.715	0.8
O=C(COc1ccccc1[N+](=O)[O-])Nc1ccccc1N1CCCC1	52.5	-2.2	-32.4	i	-2.1	0.709	0.1
CCCCN(C(=O)C(C)Oc1ccc(Br)cc1)c1c(N)n(CC(C)C)c(=O)[nH]c1=O (stereo unspecified)	19.0	2.7	13.0	i	7.8	0.627	-2.1
Cc1ccc(C(C(=O)NCc2ccco2)N(C(=O)CNC(=O)c2cccs2)c2ccc(C)cc2)cc1 (stereo unspecified)	23.6	2.6	-15.3	nt	-2.3	0.691	1.1
CCC(Sc1nc(N)c(NC(=O)c2ccco2)c(=O)[nH]1)C(=O)O (stereo unspecified)	-8.5	1.2	-3.6	i	-0.3	0.741	0.0
CCOc1ccc(NC(=O)CN(C)C(=O)c2cc([N+](=O)[O-])ccc2Sc2ccccc2)cc1OCC	nt	-1.4	7.0	+	nt	0.725	5.5
CC(=O)c1ccc(OCC(O)CN2CC(C)OC(C)C2)cc1 (stereo unspecified)	2.0	0.9	-1.5	nt	2.7	0.756	4.6
O=C(Nc1ccc(C(F)(F)F)cc1-c1ccccc1)c1ccccc1	-4.8	2.2	2.5	nt	2.4	0.727	3.8
C1=C(c2cc3ccccc3cn2)CCCC1	-1.9	-0.2	-2.8	i	5.0	0.663	2.1
CN(CC(=O)Nc1ccc(F)cc1)C(=O)c1cccc(S(=O)(=O)N2CCN(c3ccccc3)CC2)c1	2.1	-2.6	-1.6	i	-2.0	0.696	1.4
CCOc1ccc(-n2ccc(=O)c(C(=O)Nc3ccc(S(=O)(=O)Nc4nccs4)cc3)n2)cc1	1.8	-5.9	5.9	i	-2.9	nt	nt
CCC(C)NC(=S)Nc1ccc2nc(N3CCOCC3)cc(C)c2c1 (stereo unspecified)	71.2	0.3	1.4	i	-0.5	0.669	-31.6
CC1(C)CC(=O)C(C=NCCN2CCN(C(=S)NC3CCCCC3)CC2)=C(O)C1	0.4	0.7	-21.5	nt	3.4	0.674	2.2
COc1ccc(OC)c(/C=N\NC(=O)CSc2nnc(CCCc3ccc(OC)c(C)c3)o2)c1	-12.6	-0.9	2.8	nt	-1.5	nt	nt
CC(C)(C)CC(C)(C)NCC(O)COCCOc1ccc(Br)cc1 (stereo unspecified)	-6.0	0.8	18.0	nt	-5.0	0.648	1.1
Cc1cc(OC(=O)C(C)(C)C)c([N+](=O)[O-])c(=O)[nH]1	2.0	3.8	-0.7	i	21.1	0.698	8.1
Cc1ccccc1Nc1nc(N)nc(CSc2nc3ccccc3s2)n1	-8.0	1.4	-20.7	nt	0.4	0.696	-2.6
Cc1ccc([C@@H]2CC=C(C(=O)O)[C@H](c3ccc(Br)cc3)N2S(=O)(=O)c2ccccc2C)cc1	nt	-1.5	1.3	nt	nt	0.682	4.6
CCCC(C)n1[nH]c(=O)c2c(C)cc(C)nc21 (stereo unspecified)	8.3	-2.5	-4.8	nt	-4.0	0.764	-4.8
Cc1nnc(SCC(=O)Nc2ccc(Cl)cn2)s1	-5.5	0.2	-1.4	i	5.7	0.686	3.9
O=C(Nc1ccc(N2CCN(C(=O)c3ccccc3)CC2)cc1)c1cc2ccccc2o1	0.2	1.1	19.6	nt	-5.9	0.713	-16.8
O=C(Nc1nnc(-c2ccc(Br)cc2)o1)c1cccc(N2C(=O)CCC2=O)c1	-18.8	4.9	8.1	i	6.0	0.666	2.1
C/C(=N\O)C(C)/[N+]([O-])=C/c1nc(C)c(C)n1O (stereo unspecified)	-3.8	0.5	8.9	nt	-4.5	nt	nt
CCN(CC)C(=O)Cn1cc(/C=C(\C#N)C(=O)N2CCN(c3ccccc3)CC2)c2ccccc21	-1.5	-1.5	13.6	nt	-0.3	0.712	2.2

Three compounds out of the list above, sorted by the value under B2AR ag, descending.
SMILES	ALR inh	HNF4A DNA FP	B2AR ag	FGF22 binding	LANA-H2B inh	Ecoli growth	UCH37 DUB inh
C/C(=N\O)C(C)/[N+]([O-])=C/c1nc(C)c(C)n1O (stereo unspecified)	-3.8	0.5	8.9	nt	-4.5	nt	nt
CCC(Sc1nc(N)c(NC(=O)c2ccco2)c(=O)[nH]1)C(=O)O (stereo unspecified)	-8.5	1.2	-3.6	i	-0.3	0.741	0.0
CCCC(C)n1[nH]c(=O)c2c(C)cc(C)nc21 (stereo unspecified)	8.3	-2.5	-4.8	nt	-4.0	0.764	-4.8

(listing goes on)
SMILES	ALR inh	HNF4A DNA FP	B2AR ag	FGF22 binding	LANA-H2B inh	Ecoli growth	UCH37 DUB inh
O=C(Nc1ccccc1)Nc1cc(Cl)cc(Cl)c1	-8.1	-2.0	10.5	nt	-2.0	nt	nt
Cc1ccc(Cl)cc1N(C(=O)c1csnn1)C(C(=O)NC1CCCC1)c1ccco1 (stereo unspecified)	0.0	0.4	12.5	i	-4.1	0.706	7.4
Cc1ccc2c(c1)[nH]c1c(=O)n(CCCN3CCOCC3)cnc12	-2.3	1.6	-9.5	nt	-3.9	0.749	-4.2
O=C(COC(=O)CCC(=O)c1cccs1)Nc1ccccc1[N+](=O)[O-]	27.7	-0.2	0.7	i	7.7	0.658	-0.7
O=C(c1cccc(S(=O)(=O)N2CCc3ccccc3C2)c1)N1CCN(c2ccccc2)CC1	23.8	3.6	-2.4	nt	0.7	0.678	2.6
Cc1ccc(OCC(O)CNCc2ccccc2)cc1C (stereo unspecified)	-5.3	2.2	7.1	i	1.4	0.652	0.5
O=C1c2cccc3c([N+](=O)[O-])ccc(c23)C(=O)N1O	89.9*	-28.4	-58.9	i	0.6	nt	nt
Cc1ccccc1OC/C(O)=C(\C#N)c1nc2ccccc2[nH]1	-0.9	2.0	-2.3	nt	-2.4	nt	nt
COc1ccc(C2=NCC(CSc3nnc(-c4ccc5c(c4)OCO5)o3)S2)cc1 (stereo unspecified)	-12.2	-1.0	4.9	nt	6.8	0.728	-9.0
CC(C)C[C@H](NC(=O)c1nc[nH]c1C(=O)N[C@@H](CC(C)C)C(=O)OC(C)(C)C)C(=O)OCc1ccccc1	-13.3	nt	nt	i	1.2	nt	0.4
CN(C(=O)c1ccccc1C(=O)OCC(=O)NCc1cccs1)C1CCCCC1	-5.1	-1.6	-7.8	i	-0.6	0.686	3.2
CCCCN(C(=O)CN1CCOCC1)c1c(N)n(CC(C)C)c(=O)[nH]c1=O	nt	-1.2	7.7	i	-0.8	0.675	4.7
Cc1cccc(NC(=S)NN(Cc2ccccc2)c2ccccc2)c1C	-2.8	3.1	3.6	nt	-1.9	0.767	0.6
O=C(Nc1ccccc1C(=O)Nc1ccccn1)c1cc(F)c(F)cc1Cl	2.7	0.6	-11.7	i	4.4	0.665	-0.7
O=c1n(Cc2ccccc2Cl)nc2n1-c1ccccc1SC2	-0.4	-3.0	0.1	i	7.1	0.681	1.0
CC(=O)Nc1sc(-c2ccccc2)nc1-c1ccccc1	-9.0	2.1	-29.3	i	-2.1	0.718	-9.5
CC1=CCC(C(=O)O)(C(=O)N/N=C/c2cccs2)C(c2ccc([N+](=O)[O-])cc2)C1 (stereo unspecified)	3.9	-6.6	1.7	nt	4.2	nt	nt
COc1cc(OC)cc(C(=O)NCC(=O)OCc2cc(=O)oc3cc(OC)ccc23)c1	0.1	0.1	-1.7	i	3.3	0.693	-31.0
CC(C)Oc1cccc(C(=O)Nc2ccc(NC(=O)c3ccco3)cc2)c1	nt	-2.3	-9.8	nt	-4.1	0.762	-35.9
Cc1ccc(C)c(-n2cc(CNC(C)Cn3cncn3)c(-c3ccccc3)n2)c1 (stereo unspecified)	nt	0.3	-14.7	i	0.3	0.64	0.9
CCCc1ccc(OCCNC(C)=O)cc1	-3.9	1.4	1.3	i	-0.9	0.712	0.9
O=C(CCCNC(=O)/C(=C/c1ccc(F)cc1)NC(=O)c1ccccc1)OCc1ccccc1	-3.5	-2.2	-0.9	i	5.6	0.676	0.2
CCC(C)NC(=O)C1CCC(CNS(=O)(=O)c2ccc3c(c2)N(C(C)=O)CCO3)CC1 (stereo unspecified)	1.4	0.8	4.6	i	2.3	0.699	5.3
CCCc1nnc(NC(=O)CCC(=O)N2CCN(c3ccccc3)CC2)s1	7.8	-0.4	-2.0	i	2.4	0.643	2.8
CCCCNC(=O)C1CCCN1C(=O)Nc1cccc(OC)c1 (stereo unspecified)	-12.9	1.0	5.9	nt	2.1	0.688	0.2
COc1ccccc1Nc1nc(Cl)c(C=O)s1	nt	49.5*	-84.2	i	-5.9	0.739	0.6
CC(OC(=O)Cn1cnc2c1c(=O)n(C)c(=O)n2C)C(=O)c1ccccc1 (stereo unspecified)	-9.1	-1.2	-9.6	i	-3.9	0.631	4.5
CN(Cc1cccs1)C(=O)Cc1csc(-c2ccccc2)n1	-3.0	0.5	-2.3	i	1.9	0.689	0.7
COc1ccc(C)cc1-n1nnnc1SCc1cc(=O)n2cc(C)ccc2n1	-2.6	-0.7	8.1	nt	-7.9	0.725	-5.9
COC(=O)c1cc(OC)c(OC)cc1NC(=S)N1CCN(C/C=C/c2ccccc2)CC1	-0.9	-0.3	-1.7	i	3.3	0.645	2.0
CC1CCN(Cc2ccc(-c3nn[nH]n3)cc2)CC1	-7.5	-0.4	-0.2	nt	-4.6	0.757	-2.2
CCOC(=O)c1[nH]c(C)c(/C(O)=C2\C(=O)C(=O)N(CCN3CCOCC3)C2c2cccs2)c1C (stereo unspecified)	46.4	7.7	-0.3	nt	-2.6	0.725	7.4
CC(C)(C)NC(=O)CSc1nc(O)cc(=O)[nH]1	nt	-2.7	-213.5	nt	-3.6	0.693	7.5
Cc1ccc(C(=O)NCC(=O)OCC(=O)Nc2cccc(S(=O)(=O)N3CCCC3)c2)cc1C	-14.8	-0.7	1.0	i	-1.2	0.698	4.1
